# Bioassay records (PubChem BioAssay)
# E coli growth: inhibitors of Escherichia coli growth; OD600, 23 h; stronger effect = lower value; OD600 absorbance (concentration not given with the values); 0.21% of 330,000 active; AID 1053175;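 active = OD600 absorbance below the run mean of sample wells minus 3.6 SD, in any replicate, cut at about 0.56 in these data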;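 also: stock transfer was 300 nL into about 60 µL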
# UCH37 DUB inh: blocks the human deubiquitinase UCH37. Q9Y5K5. purified proteasome/UCH37, Ub-AMC cleavage fluorescence. inhibition, % (test concentration not listed). 0.33% of 330,000 active. AID 588478;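 active = mean of two replicates above 20%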;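 also: 0% = compound-free wells with enzyme and 100% = wells lacking proteasome; stock transfer was 100 nL into about 20 µL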
# Target sequence (Q9Y5K5 whole entry, looked up): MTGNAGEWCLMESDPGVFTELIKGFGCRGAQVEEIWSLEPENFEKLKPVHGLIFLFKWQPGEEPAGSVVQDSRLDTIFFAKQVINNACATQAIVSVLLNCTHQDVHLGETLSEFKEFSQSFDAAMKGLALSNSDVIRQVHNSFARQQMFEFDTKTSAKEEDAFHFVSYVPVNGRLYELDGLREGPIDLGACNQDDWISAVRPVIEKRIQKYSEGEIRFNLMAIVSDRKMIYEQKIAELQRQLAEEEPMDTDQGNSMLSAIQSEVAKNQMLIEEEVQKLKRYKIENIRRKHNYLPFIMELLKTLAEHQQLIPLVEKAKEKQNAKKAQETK
#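 Material: human UCH37 enzyme supplied as purified proteasome complex / Amount: 0.15 nM proteasome as dispensed / Buffer or medium: pH 7.4 Tris-HCl (50 mM) with ovalbumin, ATP-MgCl2, DTT / Times: preincubation 30 min, reaction 25 min, room temperature / Technique: AMC fluorescence from Ub-AMC cleavage, excitation 355 nm, emission 460 nm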
# * marks the source's active call; other numbers are inactive results. Not all compounds are listed; the hit share may differ from the screen's.
SMILES,E coli growth,UCH37 DUB inh
CC(=NNC(=O)c1ccc(Cl)cc1)c1cccc(NC(=O)c2cccnc2)c1,0.7,2.2
CC(CC(=O)NCc1ccco1)=NNC(=O)CC#N,0.708,0.4
CCCC(=NNC(=O)c1csc(C)c1C)c1cccs1,0.706,1.4
O=[N+]([O-])c1ccc(NN=Cc2ccc[nH]2)cc1,0.604,0.5
COc1cc(C(=O)NN=Cc2sc(=O)n(-c3ccccc3)c2Cl)cc(OC)c1OC,0.614,3.1
COC(=O)NN=Cc1cccnc1,0.651,1.2
CC(=NNC(=O)c1cccc(O)c1)c1ccc(NC(=O)Cc2ccccc2)cc1,0.662,6.3
Clc1ccccc1-c1nc(C=NN2CCOCC2)c2ccccn12,0.733,7.2
CC(=NNC(=O)c1c[nH]c2ccccc12)c1ccc(C)o1,0.663,9.0
NC(N)=NN=Cc1cccc([N+](=O)[O-])c1O,0.703,3.8
O=C(Nc1ccccc1C(=O)NN=Cc1ccc(F)cc1)c1ccccc1Br,0.702,0.6
CC(C)c1cc(C(=O)NN=Cc2ccoc2)cs1,0.646,5.8
COc1ccc(NN=C(C#N)C(=O)NCCc2ccc(OC)c(OC)c2)cc1,0.639,4.6
O=C(CNC(=O)c1cccc(Br)c1)NN=Cc1cccs1,0.635,2.1
Cc1cc(C)n2nc(SCC(=O)NN=Cc3cccc(Br)c3)nc2n1,0.713,5.1

# Profiles, looked up by structure.
# Entry for COc1cc(C(=O)NN=Cc2sc(=O)n(-c3ccccc3)c2Cl)cc(OC)c1OC = E coli growth: 0.614; UCH37 DUB inh: 3.1
# Entry for CC(=NNC(=O)c1ccc(Cl)cc1)c1cccc(NC(=O)c2cccnc2)c1 = E coli growth: 0.7; UCH37 DUB inh: 2.2

# The listing continues:
SMILES,E coli growth,UCH37 DUB inh
C=CCN1C(=O)/C(=C/c2ccccc2)SC1=Nc1nccs1,0.728,-8.2
CCOc1ccccc1C=NNC(=O)Cc1csc(Nc2cccc(C(F)(F)F)c2)n1,0.704,-2.2
Cc1cc(NN=Cc2cccc(Br)c2)nc2ccccc12,0.669,-0.9
C=CCN1C(=O)/C(=C/c2ccc(O)cc2)SC1=Nc1nccs1,0.65,0.7
O=C(COc1cccc([N+](=O)[O-])c1)NN=Cc1ccco1,0.673,1.5
COc1cc(C(=O)NN=Cc2coc3ccccc3c2=O)cc(OC)c1OC,0.65,-29.5
CC(=NNC(=O)COc1ccc(C(C)(C)C)cc1)c1ccc2c(c1)OCCO2,0.679,0.4
Cc1ccc(S(=O)(=O)N2CCN(CC(=O)NN=Cc3ccncc3)CC2)cc1,0.697,2.0
CCC(=O)Nc1ccc(C(C)=NNC(=O)c2ccc(OC)cc2)cc1,0.707,-0.6
CC1=C(C=NNc2ccc([N+](=O)[O-])cc2[N+](=O)[O-])C(C)(C)CCC1,0.694,11.9
COc1ccc(C=NNc2nc3ccccc3[nH]2)c(OC)c1OC,0.628,-6.0
CC(=NNC(=S)NCc1ccccc1)c1ccc2ccccc2c1,0.666,0.0
CC(=NNC(=O)c1ccc2c(c1)OCO2)c1ccc(C(=O)O)s1,0.663,13.6
COc1ccc(C=NN=C2SC(CC(=O)O)C(=O)N2c2ccccc2)cc1 (stereo not given),0.712,5.8
COc1ccc(Cl)cc1N(CC(=O)NN=Cc1ccc(OC(C)C)cc1)S(=O)(=O)c1ccc(C)c([N+](=O)[O-])c1,0.745,3.0
NC(=S)NN=Cc1ccccc1OCc1ccccc1,0.692,7.8
Oc1ccc(C=NNC(=S)NCc2ccco2)cc1,0.718,6.5
COc1cc(C=NNC(=O)c2cncc(Br)c2)cc([N+](=O)[O-])c1O,0.696,13.7
O=[N+]([O-])c1ccc(C=NNc2nc3ccccc3o2)cc1,0.673,0.2
CC(C)Oc1c(Br)cc(Br)cc1C=NNC(N)=S,0.713,8.0
O=[N+]([O-])c1ccccc1C=NN1CCN(c2ccc(Cl)cc2)CC1,0.713,4.0
COc1cc(C=NNC(=O)c2cc[n+]([O-])cc2)ccc1O,0.669,14.4
C=CCc1cccc(C=NNC(=O)c2ccccc2OC)c1O,0.705,4.6
CC(=NNC(=O)c1ccncc1)c1ccc2c(c1)OCO2,0.667,7.5
Cc1nonc1C(=O)NN=Cc1ccc([N+](=O)[O-])o1,0.496*,13.3
Cc1ccc(C=NNC(=O)c2nnn(-c3nonc3N)c2CSc2ccccc2)cc1,0.675,3.0
CCCC=NNC(=O)c1[nH]c2c([N+](=O)[O-])cccc2c1C,0.674,1.8
CC(C)Cn1c(N)c(C=NNC(=O)c2ccc(Cl)cc2)c(=O)n(C)c1=O,0.673,-293.4
Cc1cc(C=Nn2cnnc2)c(C)n1-c1ccc(OCc2ccc(F)cc2)cc1,0.67,0.7
Cc1c(C=NO)c2ccccn2c1C=O,0.655,3.1

# Quoted from the listing:
# `Cc1cc(C=Nn2cnnc2)c(C)n1-c1ccc(OCc2ccc(F)cc2)cc1` in UCH37 DUB inh: 0.7
# `Cc1nonc1C(=O)NN=Cc1ccc([N+](=O)[O-])o1` in E coli growth: 0.496*

# Following part
SMILES,E coli growth,UCH37 DUB inh
O=C(CN1CCCCCCC1)NN=Cc1ccccc1F,0.692,1.7
COc1ccccc1-c1ccc(C=NO)o1,0.693,0.6
O=C(NN=Cc1c[nH]c2ccccc12)c1ccc2c(c1)OCCO2,0.63,4.4
Cc1ccccc1OCC(O)=C(C#N)c1nc2ccccc2[nH]1,0.684,-5.6
CC(=NNC(=O)c1ccc(CSc2nncn2C)cc1)c1ccc2ccccc2c1,0.695,3.1
COCc1cc(C)nc(OCC(=O)NN=Cc2ccccc2)c1C#N,0.679,-0.2
COc1cc(C(=O)ON=C2C=C(C)C(=O)C=C2C)cc(OC)c1OC,0.693,3.5
CCCCNC(=S)NN=CC1=CCC2CC1C2(C)C (stereo not given),0.609,1.1
Cc1cccc2cc(C=NNC(=O)c3ccccc3O)c(Cl)nc12,0.675,-0.1
CCC(=O)Nc1ccc(C(C)=NNC(=O)c2c(Br)c(C)nn2C)cc1,0.68,3.2
COc1ccc(C=NN(Cc2ccccc2)c2ccccc2)cc1O,0.71,6.1
O=[N+]([O-])c1cc2c(cc1C=NNS(=O)(=O)c1ccccc1)OCO2,0.67,9.4
CCOc1cc(C=NNC(=O)c2cc(C3CC3)[nH]n2)ccc1O,0.709,0.3
O=C(ON=Cc1ccc(N2CCCCC2)c([N+](=O)[O-])c1)c1cccc(Cl)c1,0.761,-2.0
ON=Cc1cccn1-c1nccs1,0.697,1.9
O=C1c2ccccc2C(=O)N1N=Cc1ccc(O)c(O)c1O,0.714,6.9
COc1cc(C(=O)ON=C2C=CC(=O)C(C)=C2)cc(OC)c1OC,0.695,11.6
O=C(NN=Cc1ccc(Cl)cc1Cl)Nc1ccccc1,0.7,2.4
Nc1c(C(=O)NN=Cc2ccc(OCc3ccccc3)cc2)cnn1-c1ccccc1,0.626,5.7
CC(=NNC(=S)Nc1cccc(C)c1)c1cccc(N)c1,0.662,-6.0
O=C(O)CCC(=NNC(=O)CNC(=O)/C=C/c1ccccc1)c1ccccc1,0.724,2.8
O=c1c(=Cc2cc([N+](=O)[O-])cc([N+](=O)[O-])c2O)sc2nc3ccccc3n12,0.738,27.0*
COc1ccc(C=NNc2nc(Nc3ccccc3)nc(N3CCCCC3)n2)c(OC)c1,0.719,3.2
Oc1ccc(Br)cc1C=Nn1c(COc2ccccc2)n[nH]c1=S,0.65,3.0
Cc1ccc(CNC(=O)CON=Cc2ccc3c(c2)OCO3)cc1,0.721,2.8
COc1cc(C=NNC(=O)c2cc3ccccc3cc2O)ccc1OCCN1CCCCC1,0.671,9.6
NC(Cc1ccc([N+](=O)[O-])cc1)=NOC(=O)C1CCCCC1,0.735,2.7
CCCCNC(=O)C(=O)NN=Cc1ccc(C(=O)OC)cc1,0.717,3.0
C(/C=C/c1ccccc1)=Nn1cnnc1,0.696,5.9
O=C(NN=Cc1cc2ccccc2[nH]1)c1ccccc1Cl,0.68,5.1
O=[N+]([O-])c1ccccc1C=NN1CCN(Cc2ccccc2Cl)CC1,0.627,0.7
COc1ccc(C=NNC(=O)c2cccc(NC(C)=O)c2)c(OC)c1,0.672,5.0
Cc1cc(C(=O)NN=Cc2ccc(C)s2)n[nH]1,0.653,7.4
Cc1ccc(S(=O)(=O)Oc2ccc(C=N/N=C3/NC(=O)C(CC(=O)O)S3)cc2)cc1[N+](=O)[O-] (stereo not given),0.683,9.1
COc1ccccc1C=NNC(=O)CC(=O)NCCc1ccccc1,0.613,1.8
Cc1cccc(NN=Cc2ccccc2O)c1,0.701,0.0
COC(=O)C=c1sc(=C(C#N)C(=O)N2CCOCC2)n(-c2ccccc2)c1=O,0.766,4.3
COC1=CC(=Cc2c(O)c(C#N)c3ccccn23)C=CC1=O,0.688,-37.9
Cc1ccc(-n2ncc(C#N)c2N=CN2CCOCC2)cc1,0.68,5.2
Cc1ccc(S(=O)(=O)NN=Cc2ccc(Cl)c([N+](=O)[O-])c2)cc1,0.685,4.3
CC(=NNC(=S)Nc1cc(S(=O)(=O)N2CCOCC2)ccc1Cl)c1ccc(N2CCOCC2)cc1,0.711,-30.5
O=C(NN=Cc1ccco1)C(O)C(O)C(=O)NN=Cc1ccco1 (stereo not given),0.668,1.8
Cc1cc(C(=O)NN=Cc2cccnc2)c2ccccc2n1,0.653,1.8
COc1cc(C=NOCC(=O)NC2CCS(=O)(=O)C2)ccc1OC(F)F (stereo not given),0.698,4.1
Cc1cc(C)nc(SCC(=O)NN=Cc2cc(C)n(-c3ccccc3C)c2C)n1,0.723,1.2
CC(=NNC(=O)CN1CCN(S(=O)(=O)c2ccc(C)cc2)CC1)c1cccc(O)c1,0.677,1.8
CC(C)c1c(C(=O)NN=Cc2ccco2)nnn1-c1nonc1N,0.723,3.9
COc1cc(C=NNC(=O)c2cc(-c3ccc4c(c3)OCO4)n[nH]2)ccc1O,0.745,4.4
O=C(O)COc1ccc(Br)cc1C=NNc1ccccn1,0.688,7.9
CCOc1cc(C=NO)ccc1OCc1ccc([N+](=O)[O-])cc1,0.686,3.5
ON=Cc1cccn1-c1ccc(Br)cc1,0.747,3.6
CC(=NNC(=O)c1nnn(-c2nonc2N)c1COc1ccccc1)c1ccccc1Cl,0.689,6.5
COc1cc(OC)c(C=NNC(=O)c2ccncc2)cc1Br,0.692,10.0
CC1(C)SC(=S)N(N=Cc2cccnc2)C1N(O)C(=O)NC1CCCCC1 (stereo not given),0.701,3.6
CCOc1cccc(C(=O)NN=Cc2coc3ccccc3c2=O)c1,0.654,-24.1
CN(C)c1ccc(NC(=NS(=O)(=O)c2cccs2)c2ccccc2)cc1,0.7,6.7
COc1cccc(C=NNC(=O)c2sc(N)nc2C)c1OC,0.71,1.4
CCOC(=O)NN=C(c1ccccc1)C1CCCCC1,0.654,2.2
CSc1ccc(C=NNc2nc(C)cc(C)n2)cc1,0.714,13.9
COc1cccc(C=NN2C(=O)NC3(CCCCC3)C2=O)c1O,0.737,-0.3

# 2 entries drawn at random from the list so far:
SMILES,E coli growth,UCH37 DUB inh
COc1cc(C=NNC(=O)c2cc(-c3ccc4c(c3)OCO4)n[nH]2)ccc1O,0.745,4.4
CC(=NNC(=O)c1nnn(-c2nonc2N)c1COc1ccccc1)c1ccccc1Cl,0.689,6.5

# Part of the list above, with two lines to a compound.
# Fields: E coli growth | UCH37 DUB inh
COc1ccc(C=NNC(=O)c2cccc(NC(C)=O)c2)c(OC)c1
  0.672 | 5.0
Cc1cc(C(=O)NN=Cc2ccc(C)s2)n[nH]1
  0.653 | 7.4
Cc1ccc(S(=O)(=O)Oc2ccc(C=N/N=C3/NC(=O)C(CC(=O)O)S3)cc2)cc1[N+](=O)[O-] (stereo not given)
  0.683 | 9.1
COc1ccccc1C=NNC(=O)CC(=O)NCCc1ccccc1
  0.613 | 1.8

# New compounds follow:
SMILES,E coli growth,UCH37 DUB inh
COc1ccc(C=NNS(=O)(=O)c2ccc(NC(C)=O)cc2)cc1,0.682,2.2
COc1ccc(C=Nn2c(C)nc3c([nH]c4ccccc43)c2=O)cc1CN1CCCC(C)(C)C1,0.704,0.5
CCn1cc(C=NNC(=O)C2(C)CC2(Cl)Cl)c(C)n1 (stereo not given),0.663,2.2
O=C(CNC(=O)c1cccs1)NN=Cc1ccco1,0.646,-2.3
Cc1ccc2c(Cl)c(C(=O)NN=Cc3cccn3C)sc2c1,0.717,-17.3
CC(=Nn1cnnc1)c1cccnc1,0.675,1.9
NC(=NOCc1ccccc1)c1nonc1N,0.694,5.9
COc1cc(C=NNS(=O)(=O)c2ccc(C)c([N+](=O)[O-])c2)ccc1O,0.731,4.4
Cc1cccc(OCC(=O)NN=C2SCC(=O)N2Cc2ccco2)c1,0.68,0.1
COc1ccc(N(N=C2Sc3ccccc3C2=O)C(C)=O)cc1,0.685,77.7*
Cc1ccc(C(=O)ON=Cc2c(C)nn(C)c2Cl)cc1,0.691,-2.4
CCOC(=O)c1cc(C)sc1N=CC1C(=O)CCCC1=O,0.703,3.1
O=[N+]([O-])c1ccc(NN=Cc2cccn2-c2ccccc2)nc1,0.701,-1.0
COc1cccc(Cn2cc(C=NNC(=O)c3cc(O)cc(O)c3)c3ccccc32)c1,0.669,-28.0
COc1ccc(C=NNC(=O)c2c(C)nc3ccc(Br)cn23)cc1,0.729,-46.5
CC(=O)Nc1cccc(C(C)=NN2C(C)CCCC2C)c1 (stereo not given),0.604,2.1
COc1cc(C=c2sc(=CC(=O)C(C)(C)C)[nH]c2=O)cc(OC)c1OC,0.726,2.8
CCCCNC(=O)C(=O)NN=Cc1ccc(OCc2ccccc2)cc1,0.709,-1.1
